# PKD1 inh = blocks activity of human protein kinase D1; Q15139; PKD1 kinase fluorescence polarization assay; inhibition, %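 (about 10 µM by stock and volumes)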; 200,000 compounds, 0.056% hits;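 active = inhibition of 50% or more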;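 note: controls were vehicle for no effect and a reference inhibitor for full effect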
# GALR2 ag = GALR2 (human) receptor agonism | O43603 | GALR2-expressing cells, agonist activation read-out | activation, %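 (tested at 5 µM)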 | 140,000 compounds, 0.48% hits | AID 803;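 active = above mean plus 3 SD of all compounds, about 5% in these data, not always enough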;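 note: 0% = vehicle buffer wells and 100% = reference agonist at full effect; tested in CHO reporter cells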
# Target sequence (O43603 whole entry, looked up): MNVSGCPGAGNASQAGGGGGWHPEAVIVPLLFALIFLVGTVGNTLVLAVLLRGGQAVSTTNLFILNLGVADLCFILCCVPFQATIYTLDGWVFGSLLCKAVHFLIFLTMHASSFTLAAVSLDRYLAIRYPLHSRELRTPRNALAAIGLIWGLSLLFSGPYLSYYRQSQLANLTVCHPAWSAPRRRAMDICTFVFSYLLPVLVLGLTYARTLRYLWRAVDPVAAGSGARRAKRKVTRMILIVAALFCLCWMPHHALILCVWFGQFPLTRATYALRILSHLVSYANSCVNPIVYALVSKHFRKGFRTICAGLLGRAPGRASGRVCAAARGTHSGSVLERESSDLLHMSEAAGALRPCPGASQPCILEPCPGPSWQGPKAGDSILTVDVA
# RGS16-Gao HTS = RGS16-Galphao interaction regulator (human) | O15492+P09471 | bead-based flow cytometry RGS16-Galphao binding, fluorescence; actives lie on both sides | binding response (% of control), % at 10 µM | 220,000 compounds, 0.38% hits | AID 1441;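 active = below 25% or above 175%, edge rows of some plates excepted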;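 note: Galphao activated by GDP with aluminum fluoride before binding; 100% = wells without compound and 0% = beads without RGS; some results beyond the cut were filed as inactive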
# Target sequence (O15492 whole entry, looked up): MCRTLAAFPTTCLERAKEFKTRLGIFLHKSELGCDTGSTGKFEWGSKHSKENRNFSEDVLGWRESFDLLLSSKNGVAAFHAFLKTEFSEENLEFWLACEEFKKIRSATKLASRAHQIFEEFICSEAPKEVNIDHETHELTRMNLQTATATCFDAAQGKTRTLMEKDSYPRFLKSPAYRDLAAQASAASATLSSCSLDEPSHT
# Target sequence (P09471 whole entry, looked up): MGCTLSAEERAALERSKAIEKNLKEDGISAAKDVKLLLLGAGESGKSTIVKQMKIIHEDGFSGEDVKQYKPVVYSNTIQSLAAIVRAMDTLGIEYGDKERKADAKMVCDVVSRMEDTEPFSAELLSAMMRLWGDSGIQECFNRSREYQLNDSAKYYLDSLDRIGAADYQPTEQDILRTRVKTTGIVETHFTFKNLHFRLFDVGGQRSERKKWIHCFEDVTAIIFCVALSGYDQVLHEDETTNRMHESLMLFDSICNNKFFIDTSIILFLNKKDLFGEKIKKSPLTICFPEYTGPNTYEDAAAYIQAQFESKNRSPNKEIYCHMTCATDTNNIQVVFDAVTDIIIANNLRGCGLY
# INS promoter inh = TRM-6 insulin promoter activity inhibition | 130,000 compounds, 0.9% hits | AID 1273 | inhibition, % at 2 µM | TRM-6 cells (human fetal islet line), insulin promoter-eGFP reporter, imaging; reporter expression induced with tamoxifen;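 active = inhibition above the mean plus 3 SD, with well images judged a real hit on visual review, cut at about 60% in these data, passing the limit was not always enough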
# HSV replic up = increases HSV replication in cells; HSV replication augmentation in cells, fold increase; maximum fold increase; 220,000 compounds, 0.005% hits; AID 1956;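 active = peak rise of 1.5-fold or more in the series; tested in PC3 cells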;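 note: first round at 10 µM; read as green reporter fluorescence; hits show the peak of a series up to 25 µM; 1 = signal of infected wells without compound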
# INS promoter inh cell count = second read-out of INS promoter inh, no call of its own (marks repeat the call); normalized cell count, %; measured here: cell count, toxicity; reference of the scale not given here;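 cells exposed to compound for 48 h; stained nuclei by imaging scaled within each plate; lower means fewer cells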
# HSV replic up primary fold = also measured in HSV replic up; calls as there; fold increase; compound at 10 µM; measured here: primary screen fold increase 10 uM; tested in PC3 cells;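 GFP signal in the first replicate; 1 = infected wells without compound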
# Starred values were filed as active, the others as inactive; i = inactive; / = not tested or not shown.
# Sample of the layout, 10 compounds:
# The line under a structure holds: PKD1 inh | GALR2 ag | RGS16-Gao HTS | INS promoter inh | INS promoter inh cell count | HSV replic up | HSV replic up primary fold
CN1CCCN(C(=O)c2cc(=O)[nH]c3ccccc23)c2nc3ccccc3nc21
  -1 | -4.3 | 101 | -16 | 121 | i | 0.99
Cc1cc(C)n(CCCN2C(=O)c3cccc4cccc(c34)C2=O)n1
  4 | / | 103 | -9 | 62 | i | 1
CN1CCN(C2=C(Cl)C(=O)N(c3ccc(Cl)c(Cl)c3)C2=O)CC1
  2 | 0.8 | 110 | / | / | i | 0.85
CC(=O)C1=C(O)C(=O)N(Cc2ccccc2)C1c1ccccc1F (configuration not stated)
  -4 | -1.7 | 78 | 36 | 151 | i | 0.88
COc1ccc(C(=O)C2CCCN(C(=O)CCc3scnc3C)C2)c(C)c1 (configuration not stated)
  -2 | / | 100 | / | / | i | 1
Cn1c(=O)cc(OCCCC(=O)NCc2cccnc2)c2ccccc21
  -2 | / | 105 | 14 | 80 | i | 0.8
CC(=O)c1ccc(NC(=O)N2CCN(c3cccc(Cl)c3)CC2)cc1
  1 | -0.6 | 82 | 10 | 121 | i | 0.89
Nc1cc(S(=O)(=O)N2CCCCC2)ccc1Oc1ccccc1
  1 | / | 98 | / | / | i | 1.1
Cc1ccc2c(c1)N(C(C)C(=O)NCc1ccc3c(c1)OCO3)C(=O)CO2 (configuration not stated)
  / | / | 99 | / | / | i | 0.83
Cc1ccccc1Cn1cc(NC(=O)COc2ccccc2)cn1
  2 | -0.1 | 28 | -20 | 110 | i | 1

# Results, repeating the preview:
# The line under a structure holds: PKD1 inh | GALR2 ag | RGS16-Gao HTS | INS promoter inh | INS promoter inh cell count | HSV replic up | HSV replic up primary fold
CN1CCCN(C(=O)c2cc(=O)[nH]c3ccccc23)c2nc3ccccc3nc21
  -1 | -4.3 | 101 | -16 | 121 | i | 0.99
Cc1cc(C)n(CCCN2C(=O)c3cccc4cccc(c34)C2=O)n1
  4 | / | 103 | -9 | 62 | i | 1
CN1CCN(C2=C(Cl)C(=O)N(c3ccc(Cl)c(Cl)c3)C2=O)CC1
  2 | 0.8 | 110 | / | / | i | 0.85
CC(=O)C1=C(O)C(=O)N(Cc2ccccc2)C1c1ccccc1F (configuration not stated)
  -4 | -1.7 | 78 | 36 | 151 | i | 0.88
COc1ccc(C(=O)C2CCCN(C(=O)CCc3scnc3C)C2)c(C)c1 (configuration not stated)
  -2 | / | 100 | / | / | i | 1
Cn1c(=O)cc(OCCCC(=O)NCc2cccnc2)c2ccccc21
  -2 | / | 105 | 14 | 80 | i | 0.8
CC(=O)c1ccc(NC(=O)N2CCN(c3cccc(Cl)c3)CC2)cc1
  1 | -0.6 | 82 | 10 | 121 | i | 0.89
Nc1cc(S(=O)(=O)N2CCCCC2)ccc1Oc1ccccc1
  1 | / | 98 | / | / | i | 1.1
Cc1ccc2c(c1)N(C(C)C(=O)NCc1ccc3c(c1)OCO3)C(=O)CO2 (configuration not stated)
  / | / | 99 | / | / | i | 0.83
Cc1ccccc1Cn1cc(NC(=O)COc2ccccc2)cn1
  2 | -0.1 | 28 | -20 | 110 | i | 1
COC(=O)c1cccc(-n2[nH]nnc2=S)c1
  1 | -0.8 | 80 | -60 | 58 | i | 0.95
N#C/C(=C\c1cn(Cc2ccccc2F)c2ccccc12)C(=O)NCc1ccco1
  -9 | -0.5 | 98 | -7 | 144 | i | 0.82
CC(=O)c1cc(C#N)c(N(C)Cc2ccccc2)nc1C
  0 | / | 99 | -86 | 79 | i | 1
Cc1ccc(C(c2nnnn2C2CCCC2)N2CCN(c3nc4ccccc4s3)CC2)cc1 (configuration not stated)
  -11 | -2.0 | / | 40 | 152 | i | 1.1
CCC(CC)Nc1ccc(C(CC(N)=O)NC(=O)Cc2ccc(Br)cc2)cc1[N+](=O)[O-] (configuration not stated)
  / | / | 105 | / | / | i | 0.6
O=S(=O)(c1cccc(C(F)(F)F)c1)N1CCC(O)(c2cccnc2)CC1
  -14 | 0.9 | 102 | -8 | 88 | i | 0.94
Cc1cc(NC(=O)CN2CCCCC2C)no1 (configuration not stated)
  1 | -0.8 | 103 | 43 | 60 | i | 1.1
CC(=O)N(CN1C(=O)c2ccccc2C1=O)c1cccc(C)c1
  -3 | -1.7 | 95 | / | / | i | 1.1
COc1cccc(N(C(=O)Cn2nnc(-c3cccs3)n2)C(C(=O)NC2CCCCC2)c2ccncc2)c1 (configuration not stated)
  6 | -1.5 | 93 | 20 | 107 | / | /
O=C(O)CCCC(=O)Nc1ccc(-n2ccc(C(F)(F)F)n2)cc1
  / | / | 100 | / | / | i | 1.1
CCC(C)NC(=O)CCC(=O)NNc1nc2ccccc2c2nc(C)nn12 (configuration not stated)
  2 | 0.1 | 100 | -144 | 111 | i | 0.9
Clc1ccc(-c2nnc(C3CCCCC3)o2)cc1
  9 | -1.9 | 99 | -18 | 92 | i | 0.79
CCCCc1c(C)nc2cc(-c3ccco3)[nH]n2c1=O
  / | / | 102 | / | / | i | 1.1
O=C(O)c1cc([N+](=O)[O-])ccc1N1CCC(Cc2ccccc2)CC1
  -1 | -0.1 | 99 | / | / | i | 0.82
Cc1cc(Nc2ccccc2C(=O)O)nc2nc3ccccc3c(=O)n12
  4 | -0.6 | 103 | -146 | 83 | i | 0.87
CN(c1ccccc1C(N)=O)S(=O)(=O)c1ccccc1
  -8 | -2.3 | 104 | -33 | 114 | i | 0.95
C/C(=N/Oc1nc(C)cc(C)n1)c1ccc(F)cc1
  -5 | -1.6 | 100 | -34 | 93 | i | 0.87
N#Cc1c(N2CCOCC2)nsc1-c1ccccc1
  / | / | 86 | / | / | i | 1.1
C=C1CSc2nc(=O)c3c(C)c(C)sc3n21
  -12 | -3.7 | 100 | 47 | 148 | i | 0.99
CCOc1ccc(Cc2n[nH]c(=S)n2Cc2ccccc2)cc1
  4 | / | 92 | / | / | i | 0.95
Cc1c(N2C(=O)CSC23C(=O)Nc2ccccc23)c(=O)n(-c2ccccc2)n1C (configuration not stated)
  -15 | -1.7 | 98 | 27 | 36 | i | 0.99
C/C(=C\C(=O)N1CCc2ccccc21)C(=O)O
  0 | -3.5 | 98 | / | / | i | 1
Cc1ccc(NS(=O)(=O)c2cc(C(=O)OCC(=O)NCC3CCCO3)ccc2C)cc1 (configuration not stated)
  -3 | / | 113 | 40 | 66 | i | 1.1
Fc1ccc(N2CN(Cc3cccnc3)CNC2=S)cc1
  / | / | 97 | / | / | i | 0.81
CC(Oc1ccc(F)cc1)C(O)CCN(C)C (configuration not stated)
  -1 | / | 106 | -33 | 78 | i | 1.1
O=c1ccc(Cc2ccc(Cl)cc2)n[nH]1
  6 | / | 100 | 6 | 127 | i | 0.87
CCC(C)c1ccc(O)c(N)c1 (configuration not stated)
  -14 | -3.0 | 99 | / | / | i | 0.74
COc1ccc(OC)c(C(c2nnnn2C(C)(C)C)N2CCc3ccccc3C2)c1 (configuration not stated)
  -6 | -2.0 | 109 | / | / | i | 1.1
COc1ccccc1CC(=O)NNS(=O)(=O)c1ccc([N+](=O)[O-])cc1
  -6 | / | 102 | / | / | i | 0.96
CC(C)C(c1nnnn1Cc1ccccc1)N(CCCO)Cc1cc2cc3c(cc2[nH]c1=O)OCO3 (configuration not stated)
  5 | -0.4 | 100 | / | / | i | 0.91

# (next part)
Structure,PKD1 inh,GALR2 ag,RGS16-Gao HTS,INS promoter inh,INS promoter inh cell count,HSV replic up,HSV replic up primary fold
Cc1cc(C)n(CCC(=O)N/N=C/c2ccc(O)cc2)n1,-1,0.4,104,/,/,i,1
c1ccc(C2=NNC(=NCc3ccc4c(c3)OCO4)SC2)cc1,-5,0.1,101,/,/,i,0.87
CN1/C(=C/C(=O)CSc2ccccc2C(=O)O)C(C)(C)c2ccccc21,/,/,96,/,/,i,1.3
COC(=O)/C(=C\c1ccc(O)cc1)c1nc2ccccc2[nH]1,-1,/,94,/,/,i,0.96
O=C(NCCc1ccccc1)C1CCCN1S(=O)(=O)c1ccc(F)cc1 (configuration not stated),2,-0.7,/,-412,57,i,1.1
CN1C(=O)N(C)C2CC1N(C)C(=O)N2C,-4,-2.2,98,-26,124,i,0.96
O=c1nc(/C=C/c2cccn2-c2ccc([N+](=O)[O-])cc2)cc(C(F)(F)F)[nH]1,-3,/,135,20,84,i,1.1
O=C1Nc2ccc(Cl)cc2/C1=C/C1CC=CCC1 (configuration not stated),3,5.0*,99,3,109,i,0.91
Cc1ccc(OCCn2c(C)c(/C=N/n3cnnc3)c3ccccc32)cc1,1,9.1*,103,/,/,i,0.79
CCOC(=O)c1c(-c2ccc(OC)cc2)nc2nonc2c1N,-11,-2.4,102,40,25,i,0.97
CCCS(=O)(=O)N1CCC(Cc2ccc(OC)cc2)(C(=O)OCC)CC1,-4,/,103,9,133,i,1
Cn1ccnc1SCC(=O)Nc1cc(C(F)(F)F)ccc1N1CCOCC1,5,-0.9,98,-17,141,i,0.99
Cc1ccc(S(=O)(=O)NC(=O)N2CCN(Cc3c(F)cccc3Cl)CC2)cc1,/,/,96,/,/,i,1.2
O=C(Oc1ccc2c(=O)c(Oc3ccc4ccccc4c3)coc2c1)c1cccnc1,-7,0.5,104,4,93,i,1
CC(C)(C)OC(=O)NNC(=O)c1cccs1,-7,/,95,/,/,i,0.84
CCOC(=O)C1(O)CC(C)=NN1C(=O)c1cccc(Cl)c1 (configuration not stated),-1,0.0,104,-27,134,i,0.97
CC(=O)N1CCCc2cc(S(=O)(=O)CCC(=O)N3CCN(c4ccccc4)CC3)ccc21,10,-0.8,111,/,/,i,0.96
O=C(Oc1ccc2ccc(OC(=O)N3CCOCC3)cc2c1)N1CCOCC1,1,-1.9,98,5,52,i,1
COc1ccc(CNC(=O)C/C(C)=N/NC(=O)COc2ccc(C)cc2Br)cc1,1,/,95,-3,128,i,0.6
COCCNC(=O)c1nc2ccccc2s1,0,0.1,110,/,/,i,0.92
CCOC(=O)N1CCN(c2nc(C)cc(C(F)(F)F)n2)CC1,-11,-0.6,103,8,127,i,0.84
COc1ccc(-c2ccc(SCC(=O)c3cccs3)nn2)cc1,0,/,97,/,/,i,1
CCSc1nc2c(c(=O)[nH]1)C(C(C)C)C(C#N)=C(N)O2 (configuration not stated),0,-3.8,100,/,/,i,0.89
Cc1csc(NC(=O)c2cc3c(s2)CCCC3)n1,3,0.2,41,-76,56,i,0.88
O=C(CSc1nnc(-c2cccnc2)n1Cc1ccco1)c1ccc(Cl)c(Cl)c1,13,-2.8,93,/,/,i,1.1
Cc1cccc(NC(=S)N2CCN(S(=O)(=O)c3cccc(F)c3)CC2)c1,-5,/,100,18,85,i,1.1
S=c1[nH]nc(-c2ccc(Br)cc2)n1Cc1ccccc1,1,/,98,/,/,i,0.92
COCCNC(=O)c1ccc2c3n(nc2c1)-c1ccccc1CO3,/,/,93,/,/,i,0.96
CN(C)/N=C/c1cn(-c2ccccc2)nc1-c1cccnc1,3,/,109,-14,89,i,0.93
O=C(NNC(=O)c1cccc(Br)c1)C(=O)N1CCCCC1,3,-2.1,91,-7,122,i,0.99
CCOc1ccc(CCNC(=O)C(CC)n2nc(C)n3c(cc4sccc43)c2=O)cc1OCC (configuration not stated),-6,-0.8,104,/,/,i,0.9
CCC(C)n1c(SCC(=O)/C(C#N)=C(\C)N)nc2ccccc2c1=O (configuration not stated),10,-0.9,95,6,164,i,0.85
COc1ccc(-c2cc(C(F)F)n3ncc(C(=O)Nc4cccc(S(=O)(=O)N5CCOCC5)c4)c3n2)cc1,-3,/,100,/,/,i,0.89
COc1ccc(C(=O)/C(C#N)=N/Nc2cccc([N+](=O)[O-])c2)cc1,-5,/,102,/,/,i,0.89
COc1ccc(-n2c3c(cc(C(=O)NNc4ccccc4C)c2=O)C(=O)CC(C)(C)C3)cc1,0,/,86,-50,125,i,1
CC(C)(C)c1ccc(-c2noc(-c3ccc4c(c3)CCO4)n2)cc1,/,/,102,/,/,i,0.93
COc1cc(CN2CCN(c3ccccc3F)CC2)cc(OC)c1O,-1,-0.9,105,36,98,i,1.1
O=C(CCCCn1c(=O)c2ccccc2n(CC(=O)Nc2cccc(F)c2)c1=O)NCc1ccco1,-2,-2.0,102,/,/,i,0.91
Nc1ccc(C(=O)Nc2ccccc2C(=O)O)cc1,7,-2.8,92,-10,46,i,0.97
CC(C)CN(CC(C)C)c1nc(N)c(C#N)c(CC#N)c1C#N,-10,6.3*,101,41,51,i,0.92
